Assay outcomes (PubChem BioAssay)
Rango-impB inh = inhibitors of Rango-importin beta complex formation; 340,000 tested, 0.031% active; AID 540263; Q14974; Rango CFP/YFP FRET sensor + importin beta, 45 min; Potency, µM (top dose mostly 92.2 µM), for inactives: top-dose inhibition of complex formation; active = rising FRET ratio curve, often small or poorly fitted; inconclusive = mostly compound fluorescence or quenching in the first reads; inactive = flat curves in all reads;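 also: potency is read from the fitted curve at half-maximal effect; 0% = DMSO wells and 100% = buffer wells lacking importin beta; nearly all actives have a fitted effect of over 15% in size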
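Inhibition scored from the CFP 486 nm/YFP 530 nm FRET ratio 45 min after adding 0.125 microM importin beta to 50 nM Rango biosensor preincubated 5 min with compound (room temperature, PBS with DTT, Tween-20, BSA). No-importin wells as positive control.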
miR-21 reporter = raises the signal of a miR-21 reporter; HeLa miR-21 FLuc reporter, luciferase, 48 h; Potency, µM (doses to about 38.3 µM), for inactives: at the top dose reporter change, positive = more light; 340,000 tested, under 10 active; active = well fitted rising curve with a large enough effect; inconclusive = small, poorly fitted or top-dose-only effect; inactive = no such curve, though single readings can be large or run the other way;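 also: % of control where 0% means no effect; miR-21 action dims this reporter so a rising signal means less miR-21 action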
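Using DMEM plus 10% FBS, HeLa miR-21-FLuc cells are incubated with test compounds (final up to about 40uM) for 48 hours; firefly luciferase signal is then imaged following reagent-mediated lysis.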
Rango release inh = inhibitors of RanGTP-induced Rango-importin beta complex dissociation; 340,000 tested, 0.071% active; Potency, µM (doses to about 46.1 µM), without a hit: at the highest dose activity change, negative = inhibition; Biochemical FRET Rango-importin beta, RanGTP-induced dissociation; O95149+P62826; active means falling FRET ratio curve, often poorly fitted, with flat reads before Ran was added; inconclusive means other falling curves, or compound fluorescence or quenching; inactive means flat or rising ratio curve;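 also: potency is read from the fitted curve at half-maximal effect; % of control where 0% means no effect; nearly all actives have a fitted effect of over 45% in size; -100% = wells without RanGTP and RCC1; the record marks most hits as doubtful in a second field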
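Recombinant Rango FRET biosensor (EYFP–snurportin 1 IBB–cerulean CFP10) at 0.1 uM premixed with 0.25 uM importin beta in PBS, 1 mM DTT, 0.02% Tween-20, 0.1% BSA. Compound added 5 min; RanGTP-RCC1 (0.6 uM Ran, 2 mM GTP, 0.2 uM RCC1) then triggers release, read at 45 min.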
GLA inh pH 4.5 = alpha-galactosidase A (human) inhibition, pH 4.5. purified enzyme, 4-MU-alpha-Gal fluorescence, pH 4.5. activity change, negative = inhibition, % at 105 µM. 230,000 tested, under 10 active; inconclusive = small, poorly fitted or top-dose-only inhibition, or a rising curve; inactive = flat fitted curve, though single readings scatter; no compound was filed as active;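 also: 0% = full activity with enzyme and -100% = basal without enzyme; dose as in the result columns while the protocol names 77 µM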
Target sequence (P06280 whole entry, looked up): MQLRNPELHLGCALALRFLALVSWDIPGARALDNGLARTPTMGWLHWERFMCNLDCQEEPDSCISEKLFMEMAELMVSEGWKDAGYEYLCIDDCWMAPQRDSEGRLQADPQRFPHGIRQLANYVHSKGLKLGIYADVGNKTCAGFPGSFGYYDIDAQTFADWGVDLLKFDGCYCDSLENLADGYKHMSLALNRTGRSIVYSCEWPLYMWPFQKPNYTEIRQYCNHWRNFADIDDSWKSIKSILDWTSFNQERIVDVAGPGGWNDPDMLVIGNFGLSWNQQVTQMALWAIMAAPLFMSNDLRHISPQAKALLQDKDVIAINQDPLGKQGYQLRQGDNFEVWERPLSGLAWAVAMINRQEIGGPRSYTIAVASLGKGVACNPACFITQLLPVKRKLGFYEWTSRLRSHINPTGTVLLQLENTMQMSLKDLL
* hit, by the source's call; ? = inconclusive; . = not tested or not shown; & = joins results of further samples. Only part of the results is shown; count on the stated rates, not on these rows.

nr	structure	GLA inh pH 4.5	miR-21 reporter	Rango release inh	Rango-impB inh
1	COC(=O)c1ccc(CN2CCCC(C(=O)Nc3ccc(-c4ccn[nH]4)cc3)C2)cc1 (stereo not drawn)	.	8%	-4%	-2.7%
2	CCOc1ccc(S(=O)(=O)Nc2ccc(C(=O)NCC3CCCO3)cc2)cc1 (stereo not drawn)	.	-7%	8%	0.3%
3	O=c1c2ccccc2nnn1Cc1ccc2ccccc2c1	-9	-39%	8%	2.1%
4	CCCC(=O)Nc1ccc(N2CCOCC2)cc1	-10	-10%	-2%	4.9%
5	O=C(c1ccco1)N1CCC(c2nc(-c3ccccc3Cl)no2)CC1	-7	0%	-3%	0.7%
6	CN1CCN(c2ccc([N+](=O)[O-])cc2/C=N/NC(=O)c2cccc([N+](=O)[O-])c2)CC1	-6	-1%	.	.
7	COc1ccccc1NC(=O)C1=C(C)NC(SCC(=O)c2ccc(C)cc2)=C(C#N)C1c1ccco1 (stereo not drawn)	0	8%	.	.
8	COc1ccc(Cl)cc1S(=O)(=O)NC(C)C(=O)NCc1ccc2c(c1)OCO2 (stereo not drawn)	.	-6%	4%	4.2%
9	CCOc1ccc(S(=O)(=O)N2CCOCC2)cc1NC(=O)CSCC(=O)Nc1ccc(OC)cc1	.	.	-15%	-3.3%
10	Cc1cc(C(=O)N2CCN(S(=O)(=O)c3ccccc3C#N)CC2)c(C)o1	.	.	-4%	3.3%
11	COc1ccccc1Nc1nc(N)nc(CN2CCCCC2)n1	3	-2%	2%	-1.6%
12	CCOC(=O)c1c(C)[nH]c(C)c1C(=O)COC(=O)/C=C/c1cccc(Cl)c1	2	-6%	-8%	3.2%
13	O=C(O)c1cc(Cl)c(Cl)cc1C(=O)N1CCOCC1	0	4%	2%	-6.8%
14	COc1ccc(CCNC(=O)COc2ccc(-c3ccc(C#N)cc3)cc2)cc1	7	-6%	3%	2.0%
15	N#CCC(=O)N1CCN(C(c2ccccc2)c2ccccc2)CC1	.	.	17%	-2.8%
16	O=C(NC1CC2CCCC(C1)N2C(=O)NC1CCCCC1)c1ccc(F)cc1 (stereo not drawn)	3	-2%	12%	-3.0%
17	Cc1nc(C(=O)N(C)C)nn1-c1cc(Cl)ccc1Cl	5	-16%	-13%	1.8%
18	Cn1c(SCC(=O)NC2CCCCC2)nnc1-c1cccnc1	.	-2%	-15%	-0.8%
19	COc1ccc(OC)c(C2NC(=O)CCC2[N+](=O)[O-])c1 (stereo not drawn)	.	-2%	2%	0.0%
20	N#Cc1cc(C(=O)c2cc(F)ccc2O)cn(Cc2ccccc2)c1=O	2	9%	-21%	?
21	CC1OC(OC2C(OC3C(O[C@H]4CC[C@]5(C)C6C=C[C@]78OC[C@@]9(CC[C@@H](C)[C@H](C)C97)[C@H](O)C[C@@]8(C)[C@]6(C)CC[C@H]5C4(C)C)OC(C)C(O)C3O)OC(CO)C(O)C2O)C(O)C(O)C1O (stereo partly drawn)	-14	?	.	.
22	Fc1ccccc1-c1nc2ncccc2o1	-4	-22%	?	0.2%
23	O=C(COC(=O)C1CC2CCCC(C1)C2=O)Nc1ccccc1 (stereo not drawn)	.	.	1%	3.3%
24	O=c1c(S(=O)(=O)c2ccc(Cl)cc2)cn(Cc2ccccc2F)c2ccc(F)cc12	7	-10%	-2%	-3.9%
25	COc1ccccc1N1CCN(CC(=O)Nc2cccc(F)c2)CC1	-2	-4%	-5%	1.0%
26	COCCCNC(=O)C12CCC(C)(C(=O)C1)C2(C)C (stereo not drawn)	-11	-2%	20%	-2.2%
27	CC1CCCCN1c1ncnc(N)c1[N+](=O)[O-] (stereo not drawn)	-2	?	6%	-2.1%
28	C=CCc1c(NCCO)nc(C)[nH]c1=O	-5	-4%	3%	-0.9%
29	O=C(NCCN1CCOCC1)c1ccc(Cl)cc1O	.	-9%	2%	1.9%
30	COc1ccc(/C=C2\N=C(C)N(c3ccc(C(=O)O)cc3)C2=O)cc1OC	-3	-5%	-1%	-1.3%
31	COc1ccc(OCc2nc3ccccc3[nH]2)cc1	8	-27%	-1%	-1.7%
32	COc1cc(NC(=O)c2ccc(=O)[nH]n2)cc(OC)c1OC	.	1%	-3%	8.2%
33	Cc1ccc(C)c(S(=O)(=O)N2CCCC2CNC(=O)C(=O)NC2CC2)c1 (stereo not drawn)	.	.	13%	-1.9%
34	CCOC(=O)c1nn(-c2ccccc2)c(C#N)c1N	16	-6%	6%	-0.8%
35	COc1ccccc1C/C(N)=N/OC(=O)COc1cccc(C)c1C	-7	-6%	-1%	-0.2%
36	CCOc1ccc(NC(=S)N2CCN(S(C)(=O)=O)CC2)cc1	.	-3%	-1%	-0.5%
37	Cc1ccc(S(=O)(=O)N2CCN(C(=O)c3cc(C4CC4)nc4c3cnn4C(C)C)CC2)cc1	.	.	0%	-0.2%
38	CCOC(=O)C(=NC1CCS(=O)(=O)C1)NNc1ccccc1Cl (stereo not drawn)	-1	-3%	-14%	-2.4%
39	COc1cc(Cl)c(C)cc1NC(=O)Cc1ccc(OC)c(OC)c1	3	-4%	?	-1.8%
40	COc1ccccc1C1CC(c2ccc(Cl)cc2)Nc2nc(N)nn21 (stereo not drawn)	-2	-2%	-24%	-7.6%
41	CCOC(=O)C1CCN(C(=S)NC(=O)c2cccs2)CC1	.	-13%	-15%	-3.3%
42	CCCN(CC(=O)Nc1ccccc1C)C(=O)c1ccc(N2CCOCC2)c([N+](=O)[O-])c1	.	.	0%	-4.2%
43	Cc1c(NS(=O)(=O)c2cccc(C(=O)NCc3ccccc3)c2)c(=O)n(-c2ccccc2)n1C	2	1%	9%	1.4%
44	COc1cccc(OC)c1C(=O)Nc1nnc(-c2ccc(F)cc2)s1	.	0%	-5%	1.4%
45	O=C(CSc1ccc(-c2cccc([N+](=O)[O-])c2)nn1)NC1CCCC1	-9	3%	0%	2.8%
46	Cc1nc(SCc2nc3c(F)cccc3[nH]2)c2oc3ccccc3c2n1	.	.	-10%	?
47	COc1ccc(C(C(=O)NCc2ccccc2)N(C(=O)c2snc(C(N)=O)c2N)c2ccccc2OC)cc1 (stereo not drawn)	.	6%	-4%	?
48	CC(=O)Oc1ccc(C(=O)Nc2ccccc2C(=O)N2CCCCC2)cc1	9	0%	-1%	5.3%
49	CC(=O)NCC(=O)NC1CCCc2c1cnn2-c1ccccc1F (stereo not drawn)	.	0%	2%	-0.2%
50	COCCCNc1nc2c(c(=O)n(Cc3ccc(F)cc3)c(=O)n2C)n1C	.	1%&4%	-9%	-2.1%

Part of the list above, set out differently:
35: COc1ccccc1C/C(N)=N/OC(=O)COc1cccc(C)c1C
  GLA inh pH 4.5 = -7 | miR-21 reporter = -6% | Rango release inh = -1% | Rango-impB inh = -0.2%
36: CCOc1ccc(NC(=S)N2CCN(S(C)(=O)=O)CC2)cc1
  GLA inh pH 4.5 = . | miR-21 reporter = -3% | Rango release inh = -1% | Rango-impB inh = -0.5%

The list goes on.
nr	structure	GLA inh pH 4.5	miR-21 reporter	Rango release inh	Rango-impB inh
51	Cc1ccc(C(=O)NCC(=O)NCCSc2ccc(Br)cc2)cc1	.	.	7%	0.2%
52	CCCCNC(=O)C1CCN(c2nc(OC)nc(OC)n2)CC1	-4	0%	-22%	-0.3%
53	Cc1ccc(CNC(=O)CCS(=O)(=O)c2cccc3nsnc23)cc1	-1	-5%	-2%	-1.2%
54	C=C(C)Cn1c(C)cc(C)c(S(=O)(=O)c2ccccc2C)c1=O	-2	1%	6%	1.5%
55	CC(NC(=O)COc1cccc(Br)c1)C(=O)O (stereo not drawn)	-3	-5%	4%	6.6%
56	CCOC(=O)C1CCN(C(=O)c2cc(-c3ccncc3)nc3ccccc23)CC1	.	.	18%	-0.4%
57	C/C(O)=C\c1nc2ccccc2oc1=O	-2	-14%	-26%	?
58	Cc1ccsc1/C=N/NC(=O)c1ccc(Cn2cc(Br)cn2)o1	6	-32%	-9%	3.1%
59	Cc1ccc(CN2CCN(Cc3cn(C)nc3-c3ccccc3)CC2CCO)o1 (stereo not drawn)	3	-3%	20%	-2.2%
60	COC(=O)c1cccc(COC(=O)c2ccc(CS(=O)(=O)c3ccc(C)cc3)cc2)c1	2	-1%	2%	4.1%
61	CC1(C)CC(=O)C2=C(C1)N(c1ccccc1)C(=O)C2(O)C(F)(F)F (stereo not drawn)	-3	-3%	-22%	4.1%
62	Cc1oc2cc(O)ccc2c(=O)c1Oc1ccccc1	17	-11%	-7%	-2.1%
63	CCOC(=O)N1CCN(C(=O)COC(=O)C2CCN(S(=O)(=O)c3ccc(C)c(C)c3)CC2)CC1	.	.	-5%	-2.6%
64	CC12CN3CC(C)(CN(C1)C31C(=O)N(Cc3ccccc3)c3ccccc31)C2=O (stereo not drawn)	-9	1%	.	.
65	O=C(NCC(c1cccnc1)N1CCN(c2ccccc2)CC1)c1ccco1 (stereo not drawn)	.	.	5%	0.2%
66	COc1ccc(-c2cc(-c3ccccc3)nc(SCC(=O)Nc3ncc(C)s3)c2C#N)cc1	-2	-8%	?	?
67	C/C(=N\NC(N)=S)c1ccc(-n2ccnc2)cc1	0	-15%	-10%	-1.5%
68	O=C(Cn1cnc2c(OCc3ccccc3)ncnc21)NCc1nc2ccccc2[nH]1	.	.	9%	?
69	COc1cc(/C=N/S(=O)(=O)CCc2ccccc2)cc(OC)c1O	-18	-3%	-2%	-0.3%
70	CC(C)(C)C(=O)CN1CCN(C2c3ccccc3-c3ccccc32)CC1	-15	-10%	17%	0.9%
71	O=C(Cc1ccccc1)NCC(=O)N/N=C/c1ccc(C(=O)O)cc1	.	0%	-1%	0.1%
72	O=C(CC1Oc2ccccc2NC1=O)NCCCN1CCOCC1 (stereo not drawn)	5	-2%	46%	-2.5%
73	COc1cccc(NS(=O)(=O)NC(=O)c2c(C)[nH]c3ccccc23)c1	.	-25%	-25%	2.5%
74	COc1cccc(CN2CC(C(=O)NCCCc3ccncc3)CCC2=O)c1 (stereo not drawn)	.	1%	3%	3.2%
75	O=C1C=CC(=O)N1CCNc1ncc(C(F)(F)F)cc1Cl	2	?	15%	2.7%
76	CC1=NNC(=O)C1CC(=O)N/N=C/C(Br)=C/c1ccccc1 (stereo not drawn)	0	10%	21%	-2.1%
77	CCn1c(SCC(=O)NC(=O)NCc2ccco2)nnc1-c1cccs1	2	-7%	-4%	-0.8%
78	O=C1CCc2cc(S(=O)(=O)NCc3ccc(F)cc3)cc3c2N1CC3	.	-4%	7%	-3.1%
79	COc1ccc(CC(=O)NC(C)(C)C)cc1S(=O)(=O)N1CCOCC1	5	-5%	-9%	-0.8%
80	CC1CCc2c(sc3ncn4c(SCC(=O)NCc5ccco5)nnc4c23)C1 (stereo not drawn)	1	-2%	-8%	-1.6%
81	CCN(C(=O)CSc1nc2cc(C(=O)OC)ccc2c(=O)n1Cc1ccco1)c1cccc(C)c1	0	2%	0%	1.6%
82	COc1ccc(CCNC(=O)CCS(=O)(=O)Cc2ccccc2C)cc1OC	.	-4%	2%	-0.4%
83	N#C/C(=C\c1c(N2CCC(C(N)=O)CC2)nc2ccccn2c1=O)S(=O)(=O)c1ccccc1	3	-4%	?	?
84	CCSc1ncc(/C=N/Nc2ccc(Cl)cc2)n1C	-22	-36%	16%	5.5%
85	Fc1ccc(C2NC(=S)NC3=C2N2CCC3CC2)cc1 (stereo not drawn)	11	2%	21%	-0.6%
86	COc1cc2c(cc1NC(=O)C(C)OC(=O)C1CC(=O)N(Cc3ccco3)C1)oc1ccccc12 (stereo not drawn)	-5	-56%	0%	6.9%
87	COc1ccc(C2=NN(C(=O)COc3ncnc4ccccc34)C(c3ccco3)C2)cc1 (stereo not drawn)	-8	-15%	-8%	1.2%
88	CN(CCOc1ccccc1)C(=O)c1ccc2c(=O)n3c(nc2c1)CCC3	.	.	-14%	-0.3%
89	O=C(Cn1c(=O)oc2ccccc21)N1CCN(S(=O)(=O)c2ccccc2)CC1	.	.	5%	4.9%
90	COc1ccc(C(=O)NCCc2nnc(SCC(=O)Nc3ccccc3C(C)C)n2C)cc1	0	-9%	-10%	0.0%
91	CN(C)c1ncnc2c1ncn2C1CCCCO1 (stereo not drawn)	.	.	-11%	0.4%
